# High-throughput results as filed in PubChem.
# CSC inhib – cancer stem cell inhibition | cancer stem cell-like cells viability, luminescence | inhibition, % at 7.5 µM | actives 1.1% (n = 300,000) | AID 2717;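 active = mean at 75% or more and at least half the replicates too; tested in HMLE shEcad cells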;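 also: 0% = median of negative and 100% = median of positive control wells; the first replicate is given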
# eIF4H FP inh – inhibitors of RNA binding by human eIF4H. Q15056. eIF4H fluorescence polarization binding assay. inhibition, % at 35 µM. actives 0.94% (n = 290,000);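 active = 50% or more with normal probe brightness, or confirmed in later tests; about a fifth of its hits are not listed in these tables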;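 also: calls also rest on retests at 20 µM and on dose response follow-up; 0% = protein and probe with vehicle and 100% = probe without protein; strong numbers were not always called active; many hits fall short of the cut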
# Rce1 inhib – inhibitors of yeast Ras-converting enzyme; Q03530; yeast membranes, quenched prenylated peptide cleavage fluorescence; calls only; actives 0.27% (n = 290,000);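 active = fall in fluorescence gain of 50% or more versus controls, with final raw signal at or below 3038400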;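 also: plate controls were neutral control wells for no effect and wells lacking membranes for full effect; tested at 10 µM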
# Target sequence (Q03530 whole entry, looked up): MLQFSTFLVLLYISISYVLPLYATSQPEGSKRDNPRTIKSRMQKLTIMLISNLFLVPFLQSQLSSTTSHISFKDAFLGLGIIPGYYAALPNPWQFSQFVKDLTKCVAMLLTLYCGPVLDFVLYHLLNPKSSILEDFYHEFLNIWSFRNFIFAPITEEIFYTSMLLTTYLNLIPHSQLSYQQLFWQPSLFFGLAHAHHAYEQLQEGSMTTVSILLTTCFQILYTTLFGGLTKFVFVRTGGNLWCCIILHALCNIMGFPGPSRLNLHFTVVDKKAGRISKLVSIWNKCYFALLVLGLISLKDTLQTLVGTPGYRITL
# PABP FP inh – PABP-poly(A) binding inhibition; inhibition, % at 35 µM; actives 1% (n = 290,000); AID 2014; PABP-poly(A) RNA binding, fluorescence polarization;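 active = 50% or more with normal probe brightness, or confirmed in later tests; about a fifth of its hits are not listed in these tables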;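 also: calls also rest on retests at 20 µM and on dose response follow-up; controls were probe without protein and protein plus probe with vehicle; some compounds called inactive have numbers as strong as hits; many hits fall short of the cut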
# Target sequence (P11940 whole entry, looked up): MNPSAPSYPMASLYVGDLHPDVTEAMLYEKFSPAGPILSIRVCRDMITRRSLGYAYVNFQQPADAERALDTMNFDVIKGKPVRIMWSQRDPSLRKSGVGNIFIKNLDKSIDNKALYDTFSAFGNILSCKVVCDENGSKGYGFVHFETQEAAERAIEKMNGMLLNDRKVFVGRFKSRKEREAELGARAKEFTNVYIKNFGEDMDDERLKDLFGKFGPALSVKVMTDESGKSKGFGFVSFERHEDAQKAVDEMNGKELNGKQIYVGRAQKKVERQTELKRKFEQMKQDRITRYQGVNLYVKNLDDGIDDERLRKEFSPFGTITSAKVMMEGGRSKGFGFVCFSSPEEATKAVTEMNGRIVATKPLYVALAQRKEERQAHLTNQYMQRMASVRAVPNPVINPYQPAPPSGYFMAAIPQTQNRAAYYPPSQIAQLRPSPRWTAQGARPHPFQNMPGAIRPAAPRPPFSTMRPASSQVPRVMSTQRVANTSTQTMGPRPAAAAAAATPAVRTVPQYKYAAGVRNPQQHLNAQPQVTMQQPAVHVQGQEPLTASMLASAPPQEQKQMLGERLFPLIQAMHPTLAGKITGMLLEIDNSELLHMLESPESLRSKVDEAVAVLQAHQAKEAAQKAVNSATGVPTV
# MT1-MMP act inh – inhibitors of human MT1-MMP activation. HT1080 RFP-PRO-GFP cells, GFP/RFP ratio fluorescence, overnight; percent of plate control window, DMSO zero. actives 0.061% (n = 360,000). AID 651647. GFP/RFP ratio change, % at 20 µM;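 active = GFP/RFP ratio change of at least 30% with cell ATP level not reduced by more than half and red fluorescence within 50% of control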; also: strong numbers were not always called active
#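 system = RFP-PRO-GFP reporter HT1080 cells | dosing = 20 µM single dose, 1% DMSO | timing = overnight cell settling, then overnight compound exposure, 37 °C, 5% CO2 | read-out basis = GFP/RFP fluorescence ratio | controls = DMSO and RFP-L50D-GFP cell wells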
# HIV Env fusion – inhibitors of HIV Env-mediated cell fusion; inhibition, % at 12.3 µM; actives 1.1% (n = 360,000); HeLa-JRFL Env/CEM21 cell fusion, luciferase;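 active = mean replicate inhibition score of at least 50 and every replicate individually at or above 50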;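 also: 0% = plate neutral controls and 100% = maraviroc near 300 nM; one replicate is shown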
# UUG fidelity – modulators of start codon recognition fidelity in yeast. S. cerevisiae UUG-firefly luciferase reporter, luminescence/redox ratio. activity score, % at 18.7 µM. actives 0.13% (n = 350,000). AID 602363;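 active = replicate mean at a twofold rise or more, about +100% in these data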;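 also: firefly luciferase made from a UUG start codon reports start codon fidelity; reporter light over untreated wells divided by growth signal over untreated wells; some hits fall short of that in this replicate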
# eIF4H FP inh retest – second read-out of eIF4H FP inh, no call of its own (marks repeat the call); inhibition, %; compound at 20 µM; confirmation average;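 mean of two retest wells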
# PABP FP inh retest – recorded beside PABP FP inh, whose call it bears; inhibition, %; compound at 20 µM; confirmation repeats;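 mean of two retest wells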
# MT1-MMP act inh RFP – further read-out of MT1-MMP act inh, marked with its call; RFP signal change, %; measured here: RFP expression control read;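 0 = vehicle wells; hits needed this value within 50% of zero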
# * marks the source's active call; other numbers are inactive results; i = inactive; . = not tested or not shown.
SMILES,CSC inhib,eIF4H FP inh,Rce1 inhib,PABP FP inh,MT1-MMP act inh,MT1-MMP act inh RFP,HIV Env fusion,UUG fidelity,others
COC(=O)[C@]12C(=O)C(C)=C(O)[C@@]1(C)C(C)=CC1[C@@]34CC[C@@H](OC(C)=O)C(C)(C)C3C(C[C@]12C)OC4=O (some centres undefined),4.6,3.9,i,3.0,3.5,1.9,.,-14.6,
CC1CCCCC1NCC(=O)NCc1ccc(F)cc1 (centres undefined),-7.9,7.6,i,-4.1,-1.0,-1.9,1.5,.,
O=c1cnnc(Nc2ccc(Cl)c(C(F)(F)F)c2)[nH]1,6.5,9.0,i,10.8,-2.0,-0.7,-59.2,.,
Cc1ccc(S(=O)(=O)N(C#N)c2nc(C)cc(C)n2)cc1,9.0,0.1,i,24.2,0.3,4.8,-7.2,-6.1,
CCSc1nc(C)nc2c1oc1ccccc12,.,-8.1,i,-0.3,8.8,4.8,.,-16.8,
COc1ccc(CC(=O)NCc2ccccc2Cl)cc1S(=O)(=O)N1CCOCC1,9.4,.,i,.,-3.0,4.4,-17.9,-12.3,
Nc1ccc(N=Nc2ccccc2O)c(N)c1,40.9,.,i,.,28.0,0.2,-90.6,-9.4,
Cc1sc2nc(CSCC(=O)N(C)CC(=O)Nc3ccc(F)cc3)[nH]c(=O)c2c1C,5.5,.,i,.,-44.2,4.1,6.6,-16.7,
Nc1nc(Cl)cc(N2CCC(c3cc(-c4ccc(Cl)cc4)n[nH]3)CC2)n1,70.2,-5.6,i,-4.9,-0.4,-19.6,.,-28.3,
NC1=NCc2ccccc21,-4.2,4.5,i,3.8,1.8,-1.6,.,.,
Cc1sc(NC(=S)Nc2ccc(F)cc2)c(C(N)=O)c1C,4.6,3.5,i,3.9,-2.0,0.9,0.6,.,
O=C(OCc1nnc(-c2ccccc2)o1)c1cc(S(=O)(=O)N2CCOCC2)ccc1F,-12.1,.,i,.,1.6,3.9,14.6,-6.7,
COc1ccc(C(C(=O)NC2CCCC2)N(C(=O)c2ccco2)c2ccccc2OC)cc1 (centres undefined),-6.5,-2.6,i,3.9,-1.0,3.0,27.7,-6.2,
CCC(C)Sc1nc2c(c(=O)[nH]1)C(c1cccs1)C1=C(CCCC1=O)N2 (centres undefined),69.1,95.3,i,2.1,-3.2,2.6,11.2,-4.1,eIF4H FP inh retest=-7.1;PABP FP inh retest=10.8
CCOC(=O)c1c(C)c(C(=O)NCc2ccco2)c(C)n1CC,-11.9,-2.8,i,-6.8,8.6,5.6,7.9,3.1,
CCOc1cc2c(C)cc(=O)oc2cc1Cl,-27.2,2.2,i,-9.9,-3.2,-0.6,.,-23.4,
CC(=O)c1ccc(NC(=O)CCc2c(C)nn(-c3ccc(N4CCOCC4)nn3)c2C)cc1,-10.9,-10.4,i,-11.5,0.2,5.6,-0.9,-8.9,
CCCCc1ccc(NC(=O)COc2ccc(C(=O)Nc3ccccc3C)cc2)cc1,10.0,0.2,i,-11.9,.,.,.,.,
Nc1ncnc2nc(SCc3ccccc3)[nH]c12,-3.6,-0.6,i,5.0,1.6,0.1,.,11.0,
Cc1ccc(S(=O)(=O)N2CCOCC2)cc1C(=O)c1nccn1C,13.5,-6.0,i,-6.2,0.0,4.2,3.4,.,
O=C1C2Sc3[nH]c(=O)sc3C(c3ccccc3)C2C(=O)N1c1ccccc1 (centres undefined),-10.1,9.3,i,10.9,2.5,3.3,.,.,
CCOc1ccc(-c2cc(C(=O)OC)[nH]n2)cc1,4.8,-2.2,i,-1.8,0.8,-1.2,-26.0,.,
Cc1cccc(/C=C2/SC(=O)N(Cc3ccccc3Cl)C2=O)n1,2.7,-2.0,i,-3.0,-4.4,3.1,.,-0.1,
CCN1C(C)=C(C)S/C1=C1\SC(=S)N(C2CCCCC2)C1=O,59.2,98.7,i,76.7,-3.7,-3.5,11.1,.,eIF4H FP inh retest=-0.9;PABP FP inh retest=2.2
Cc1cccc(CN2CCN(Cc3ccc4nonc4c3)CC2CCO)n1 (centres undefined),-9.6,12.4,i,-9.2,-2.8,-0.3,-13.1,.,

# (further entries)
SMILES,CSC inhib,eIF4H FP inh,Rce1 inhib,PABP FP inh,MT1-MMP act inh,MT1-MMP act inh RFP,HIV Env fusion,UUG fidelity,others
COc1ccc2c(c1)[C@H]1[C@H](CO2)[C@H](c2ccccc2)[C@]2(C)C(=O)Nc3ccccc3C(=O)N12,23.7,.,.,.,-13.3,-13.5,-40.5,-7.2,
CCN(CC(=O)NCCN1CCOCC1)S(=O)(=O)c1ccc(F)cc1,-8.3,-5.2,i,-2.9,5.9,1.3,-5.5,.,
C=C(C)CNC(=S)N/N=C/c1ccc(N2CCOCC2)cc1,37.3,7.6,i,-3.2,0.0,-3.9,-3.6,.,
CN(C(=O)CCN1C(=O)/C(=C/c2ccccc2F)SC1=S)C1CCS(=O)(=O)C1 (centres undefined),0.7,.,i,.,-2.6,-4.7,-6.3,-1.3,
Cc1cccnc1NC(=O)C1CCN(S(=O)(=O)c2ccc3c(c2)CCC(=O)N3)CC1,-8.0,2.7,i,5.1,1.0,6.1,-24.2,-11.6,
CC(C)N1C(=O)C2(OCCCO2)c2cc(Br)ccc21,-12.8,-8.8,i,2.5,0.8,0.0,4.1,-13.4,
CN(C)S(=O)(=O)c1cc(NC(=O)CNCc2ccc(F)cc2)ccc1Cl,-9.0,-2.5,i,-2.7,4.7,2.3,21.0,-14.9,
Brc1ccc2ncc(Br)cc2c1,-5.7,2.0,i,-1.4,1.3,1.8,-43.3,-8.0,
O=C(CSc1nc(-c2ccccc2)cc(C(F)(F)F)n1)NCc1ccco1,-4.0,2.5,i,-12.6,4.4,-2.0,14.2,-6.6,
O=C(COC(=O)c1ccc(Br)cc1)NC(=O)NCc1ccccc1,8.7,.,.,.,-0.5,2.2,.,-13.6,
O=C(COC(=O)c1ccc(S(=O)(=O)N2CCc3ccccc3C2)cc1)NC1CCS(=O)(=O)C1 (centres undefined),-2.4,10.4,i,-13.6,2.5,4.7,-7.8,-10.3,
O=C(CN1C(=O)NC2(CCCCC2)C1=O)N1CCN(c2ncccn2)CC1,16.5,.,.,.,-0.7,0.8,.,-2.4,
COc1ccc(CN2C(=NC(=O)C3CC3)SC3CS(=O)(=O)CC32)cc1OC (centres undefined),-1.8,-2.1,i,-2.3,-2.1,1.8,4.0,3.0,
Cc1ccccc1Nc1nc(N)nc(CSc2nncn2C)n1,-8.4,-13.6,i,-2.3,0.8,-0.5,-6.8,-13.9,
CC1CCN(CCOc2cc(Cl)ccc2Cl)CC1,5.5,6.2,i,-2.5,17.1,4.5,.,-5.0,
CCN1CCN(C(=O)c2[nH]c3ccc(OC)cc3c2C)CC1,7.2,1.0,i,6.3,7.2,9.4,4.6,-5.5,
O=C(CNC(=O)c1ccc(Br)o1)Nc1ccc(N2CCCCCC2)cc1,.,.,.,.,0.6,-0.7,-5.9,-17.5,
CCc1nnc(NC(=O)CSc2ccc(-c3ccc(F)cc3)nn2)s1,-2.1,0.6,i,-5.0,.,.,.,.,
COc1c2occc2c(OC)c2c(=O)cc(C(F)(F)C(F)(F)F)oc12,-16.8,-2.6,i,-5.9,1.8,0.4,.,-5.8,
Cn1c(=O)[nH]c(=O)c2[nH]c(CN3CCN(C(=O)c4ccco4)CC3)nc21,0.7,6.1,i,-1.4,-1.0,4.1,-50.5,-4.3,
O=C(O)CCC(=O)N1N=C(c2ccccc2)CC1c1ccc2nccnc2c1 (centres undefined),-2.5,-3.1,i,-2.8,-3.6,-1.4,-14.3,-10.1,
CCN1CC2([N+](=O)[O-])C=CC(=O)C([N+](=O)[O-])(C1)C2CC(=O)c1ccccc1 (centres undefined),-7.7,6.0,i,8.9,-3.7,3.7,-39.8,-14.6,
COc1ccc(CCNC(=O)C2CCCN(Cc3nc(-c4ccccc4C)oc3C)C2)cc1OC (centres undefined),-5.6,-10.5,i,-2.0,4.5,-4.7,4.0,-4.2,
CCOC(=O)/C=c1\s/c(=C(\C#N)C(=O)NC)n(-c2ccccc2)c1=O,5.6,39.8,i,20.0,-3.5,0.6,-3.8,-8.9,
O=C(Cn1nnc(-c2ccccc2NC(=O)c2ccccc2F)n1)NC1CCCC1,-9.3,-7.1,i,-16.5,4.6,2.6,2.7,-4.1,

# Next results follow:
SMILES,CSC inhib,eIF4H FP inh,Rce1 inhib,PABP FP inh,MT1-MMP act inh,MT1-MMP act inh RFP,HIV Env fusion,UUG fidelity,others
Cc1ccc(NCC(=O)Nc2ccc(Br)cc2)cc1F,15.9,1.0,i,-6.3,1.4,0.3,1.4,.,
O=C(NCCN1CCCCC1)Nc1ccc(F)c(Cl)c1,-2.1,-5.0,i,-2.8,0.1,0.5,18.4,-35.2,
O=C(CN1CCCCC1)NCCNc1ccc(C(F)(F)F)cc1[N+](=O)[O-],23.7,0.2,i,7.9,5.5,6.6,6.6,.,
O=C1c2ccccc2C(=O)N1CCCc1cn(C[C@H]2CC[C@H](Cn3cc(CCCN4C(=O)c5ccccc5C4=O)nn3)O2)nn1,.,.,.,.,0.2,-2.9,32.6,-12.2,
COC(=O)CNC(=O)Cn1ccc2ccccc2c1=O,-6.9,8.9,i,-2.2,2.2,7.5,.,23.6,
Cn1cccc1Cc1nnc(SCC(=O)Nc2nccs2)n1CCc1ccccc1,-19.3,4.9,i,25.1,0.2,0.5,-7.2,-13.0,
N/C(=N\NC(=O)c1ccc(F)cc1)c1cc2ccccc2oc1=O,-1.6,-2.1,i,-8.7,3.1,3.4,7.2,.,
Cn1cc2cc([N+](=O)[O-])ccc2n1,-3.5,4.9,i,36.9,-2.3,-2.5,6.0,.,
O=C(COc1ccccc1)N/N=C/c1sc(=O)n(Cc2cccc(C(=O)O)c2)c1Cl,3.4,34.9,i,26.2,-3.8,2.9,1.1,.,
COc1cc(NC(=O)CSCC(=O)Nc2cccc(C(F)(F)F)c2)c(Cl)cc1Cl,22.6,1.4,i,-12.1,9.1,-7.5,.,-17.3,
Cc1cc(NC(=O)c2ccc(F)cc2)ccc1NC(=O)c1ccco1,5.2,-8.6,i,1.1,2.0,1.7,-20.9,-15.9,
Cn1c(CNS(=O)(=O)c2ccc(Cl)cc2)n[nH]c1=S,-4.7,12.5,.,-7.1,3.4,9.4,11.0,-11.6,
COC(=O)C1(Cc2cc(-c3ccc(Cl)cc3)no2)CCN(C(=O)OC(C)(C)C)CC1,52.3,5.3,i,12.3,-1.9,-3.0,-0.7,-15.8,
O=C(O)c1cccc2c1C(=O)N(c1ccc3c(c1)Cc1ccccc1-3)C2=O,.,.,.,.,5.7,0.2,-21.2,-7.5,
COCC1CCN(C(=O)c2cc(COc3cccc4cnccc34)on2)CC1,-4.2,-8.2,i,0.6,-2.7,-27.3,15.1,-6.4,
Oc1ccc(/C=N/n2c(COc3ccccc3)n[nH]c2=S)cc1O,16.0,3.6,i,2.5,-7.0,-6.2,-0.3,.,
CCOC(=O)N1CCN(C(=O)CNC(=O)c2ccccc2F)CC1,-9.7,.,.,.,-2.3,-2.3,0.7,-19.3,
CC(C)CCNc1nc(N)c([N+](=O)[O-])c(N2CCCCCC2)n1,-5.8,-7.3,i,3.5,6.2,-32.3,22.9,2.2,
CCCCS(=O)(=O)N1CCCC(C(=O)Oc2ccc(Cl)cc2)C1 (centres undefined),3.2,2.6,i,0.1,0.7,2.6,2.0,0.4,

# Compounds listed so far that have a cyano group (2):
SMILES,CSC inhib,eIF4H FP inh,Rce1 inhib,PABP FP inh,MT1-MMP act inh,MT1-MMP act inh RFP,HIV Env fusion,UUG fidelity,others
Cc1ccc(S(=O)(=O)N(C#N)c2nc(C)cc(C)n2)cc1,9.0,0.1,i,24.2,0.3,4.8,-7.2,-6.1,
CCOC(=O)/C=c1\s/c(=C(\C#N)C(=O)NC)n(-c2ccccc2)c1=O,5.6,39.8,i,20.0,-3.5,0.6,-3.8,-8.9,
